Source: PubChem
Six1-Eya2 inh: Six1/Eya2 interaction inhibition; Q15475+O00167; AlphaScreen GST-Six1/His-Eya2 binding, biochemical; active compounds read low; control for the full effect not named in the record; activity change, % (no concentration beside the values); actives 0.56% (n = 360,000); AID 651725; in the data active = activity change below about -65%; inconclusive = about -30% to -65%; inactive = above about -30%; further: on the % scale 0 is the no-effect control and ±100 the full control effect
Target sequence (O00167 whole entry, looked up): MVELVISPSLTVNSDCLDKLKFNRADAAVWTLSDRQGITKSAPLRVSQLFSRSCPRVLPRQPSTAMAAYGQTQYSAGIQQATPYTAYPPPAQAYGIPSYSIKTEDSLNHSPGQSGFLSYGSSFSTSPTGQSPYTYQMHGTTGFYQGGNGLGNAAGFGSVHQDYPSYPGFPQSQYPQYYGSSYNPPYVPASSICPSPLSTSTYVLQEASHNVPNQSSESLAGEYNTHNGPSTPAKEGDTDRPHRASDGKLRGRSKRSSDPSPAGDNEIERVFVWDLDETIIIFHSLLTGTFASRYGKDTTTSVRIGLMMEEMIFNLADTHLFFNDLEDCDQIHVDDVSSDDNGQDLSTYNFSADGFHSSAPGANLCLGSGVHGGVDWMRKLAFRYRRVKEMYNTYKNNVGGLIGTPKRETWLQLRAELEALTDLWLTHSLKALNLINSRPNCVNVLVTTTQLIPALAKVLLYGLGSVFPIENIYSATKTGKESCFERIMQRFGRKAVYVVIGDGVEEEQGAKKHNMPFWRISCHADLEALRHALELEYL
Target sequence (Q15475 whole entry, looked up): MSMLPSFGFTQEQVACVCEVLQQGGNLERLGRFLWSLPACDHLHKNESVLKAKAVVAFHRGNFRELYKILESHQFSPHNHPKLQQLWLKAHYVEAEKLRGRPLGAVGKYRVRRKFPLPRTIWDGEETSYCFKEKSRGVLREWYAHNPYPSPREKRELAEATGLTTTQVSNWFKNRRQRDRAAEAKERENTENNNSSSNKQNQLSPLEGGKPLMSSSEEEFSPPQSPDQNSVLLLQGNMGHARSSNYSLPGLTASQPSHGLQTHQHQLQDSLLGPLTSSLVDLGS
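Homogeneous AlphaScreen proximity assay pairing GST-Six1 with His-tagged Eya2 (added as 5X mix: 250 nM and 500 nM) in 50 mM Tris pH 8.0, 300 mM NaCl, 1 mM TCEP. Glutathione donor and nickel acceptor beads; 1 h, 37 °C, dark.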
TRPML1 agonist: activates the human TRPML1 channel. TRPML1-expressing cells, Ca2+ dye fluorescence, FDSS; host cell line not named in the record; reference of the full effect not given here. Q9GZU1. actives 0.12% (n = 410,000). activation, % (concentration not given with the values); in the data active = activation above about 50%; inconclusive = about 30% to 50%; inactive = below about 30%; further: 0% is about no effect; the text of the record puts the active cut at 80%
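Tet-induced TRPML1-DL cells, 1,500 per well, cultured overnight, were loaded with a no-wash Ca2+ dye for 45–90 min. Calcium fluorescence was recorded on the FDSS for 110 s after compound addition, before the EC80 agonist (4 uM 54-4) was added.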
D2 PAM: human D2 receptor positive allosteric modulation; P14416; DiscoveRx D2 beta-arrestin cells, luminescence, 90 min; 100% = 57 uM dopamine signal; potentiation, % (test concentration not listed); actives 0.23% (n = 360,000); AID 624464; active = potentiation of 50% or more; inconclusive = 30% to 50%; inactive = 30% or less;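 further: compound concentration not given in the record; tested on top of an EC20 dose of dopamine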
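D2 cells co-treated with compound plus 50 nM dopamine (EC20) for 90 min at 37 deg C to detect potentiation. Beta-arrestin recruitment was read as enzyme-fragment luminescence after 1 h at ambient temperature. Full response was set by 57 uM dopamine.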
TRPML1 blocker: inhibitors of human TRPML1 channel | Q9GZU1 | TRPML1-inducible cells, Ca2+ dye fluorescence, FDSS; active compounds read low; inhibition of EC80 agonist-evoked calcium signal | activity change, negative = inhibition, % (concentration not given with the values) | actives 0.02% (n = 390,000); in the data active means activity change below about -50%; inconclusive means about -30% to -50%; inactive means above about -30%;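 further: stimulus is agonist 54-4 at its EC80 concentration; on the % scale 0 is the no-effect control and ±100 the full control effect; the text of the record puts the active cut at -80%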
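TRPML1-DL cells, Tet-induced overnight (~16 h, 37 °C) at 1,500 cells/well, were loaded with Ca8 no-wash dye plus quencher for 45-90 min at room temperature. Compounds were pinned during FDSS kinetic reading; agonist 54-4 at EC80 (4 uM final) then added.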
D2 agonist: human D2 receptor agonism in beta-arrestin assay; DiscoveRx PathHunter D2 beta-arrestin, luminescence, 90 min; 100% = 57 uM dopamine signal; AID 624465; actives 0.084% (n = 360,000); activation, % (concentration not given with the values); P14416; in the data active = activation above about 40%; inconclusive = about 15% to 40%; inactive = below about 15%; further: compound concentration not given in the record; the text of the record calls up to 30% inactive
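Agonist mode: compounds alone added to overnight-plated D2 PathHunter cells for 90 min at 37 C, with 57 uM final dopamine (EC100) defining full response. Beta-arrestin recruitment detected by chemiluminescent reagent, read after 1 h at ambient temperature.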
PINK1 expr mod: changes PINK1 expression. actives 0.2% (n = 410,000). PINK1 immunofluorescence, high-content cytometry, 24 h. Potency, µM (titrated, usually from 76.6 µM), inactives show at the highest dose activation (PINK1 increase), actives largely listed as activators; active = well fitted activation curve with a large enough effect; inconclusive = small, poorly fitted or top-dose-only effect; inactive = flat fitted curve, though single readings scatter; cell line not stated here;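 further: potency means the concentration at half of the fitted maximal effect; % of control where 0% means no effect; nearly all actives have a fitted effect of over 65% in size; a mitochondrial uncoupler was the plate control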
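Readout is PINK1 immunofluorescence, quantified alongside mitochondrial, cell and nuclear markers by laser-scanning microplate cytometry. Cells from a stable line were exposed to compound titrations (5 concentrations) for 24 hours, with CCCP controls.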
The depositor's hits bear a star; ? = inconclusive; . = no result given; [ ] = remark or other dose.

SMILES	Six1-Eya2 inh	TRPML1 agonist	D2 PAM	TRPML1 blocker	D2 agonist	PINK1 expr mod
O=C(CCn1ccc2cc(S(=O)(=O)N3CCCC3)ccc21)NCCc1ccccc1	-2	0.4	-7	7	3.6	-0.7%
Cc1csc(Cn2c(CN(C)C)nc3ccccc3c2=O)n1	-8	1.9	-1	33	-0.1	0.9%
C=CCNc1nc2ccccc2nc1NS(=O)(=O)c1ccc(F)cc1	3	-0.6	6	3	1.0	2.5%
CCc1noc(C)c1C(=O)N(CCC(C)C)c1c(N)n(Cc2ccccc2)c(=O)[nH]c1=O	0	-1.0	?	0	-0.9	5.5%
CC1CCN(c2c(NCc3ccc(C(=O)N(C)C4CCCCC4)cc3)c(=O)c2=O)CC1	-1	1.4	-14	-23	-2.2	0.3%
Cc1cccc(OC(=O)CN2C(=O)C3C4CCC(C4)C3C2=O)c1C (stereo unspecified)	2	0.0	3	12	-0.3	-0.3%[38.3 µM]
O=C(OCC(=O)c1ccc[nH]1)c1ccc(Br)cc1	-3	3.3	-4	0	-2.1	-0.6%
N#Cc1cccc(NC(=S)Nc2ccccc2)c1	-2	-0.3	-10	-16	-1.4	-1.3%
COc1ccc(CCN2C(=O)CC(C(N)=O)SC2=Nc2ccccc2)cc1 (stereo unspecified)	-9	0.0	1	18	1.6	-1.4%
O=C(NCC1CCCO1)C(=O)NCC(c1ccco1)N1CCN(c2ccccc2F)CC1 (stereo unspecified)	5	-0.3	6	3	10	-1.7%
CCOC(=O)c1[nH]c2cc(OC)c(OC)cc2c1NC(=O)CN(C)C1CCCCC1	-23	2.1	-17	-2	1.3	3.5%[38.3 µM]
COc1ccccc1N1CCN(S(=O)(=O)c2c(C(=O)N3CCOCC3)c(C)n(C)c2C)CC1	-1	0.6	-10	23	0.2	2.4%
Cc1ccc(-c2nc3cc(N)ccc3o2)cc1Br	11	0.1	-8	-3	1.5	-0.3%
O=C(CCN1CCN(c2ccccc2F)CC1)Nc1ccccc1F	11	1.3	-19	31	7.5	-2.5%
O=C1CCC(=O)N1c1ccc(CSc2nc3ccccc3[nH]2)cc1	-3	0.0	-6	4	-0.4	-1.9%
NC(=O)COC(=O)c1ccc(Cl)c(S(=O)(=O)N2CCCCCC2)c1	-1	0.3	-4	-15	8.7	0.8%
CCCCSc1nnc(-c2ccc(C)cc2)o1	35	1.8	-4	-15	-1.1	0.4%[38.3 µM]
CCCCC(=O)NS(=O)(=O)c1ccc(N=NN2CCOCC2)cc1	1	0.8	-6	7	-4.9	-1.0%
O=C(Nc1ccnn1C1CCN(Cc2ccc(CO)o2)CC1)c1ccccc1	-4	0.1	-5	?	-2.8	1.2%
CCNC(=O)CC1C(=O)N(c2ccc(C)cc2)C(=O)N1CCc1sccc1C (stereo unspecified)	6	0.4	-8	9	-4.2	-0.5%
COc1ccc(-n2nnnc2SCC(=O)c2cc3ccccc3o2)cc1	-1	3.0	-3	-16	-2.0	3.0%
Cc1ccc(NC(=O)Cn2c(-c3nonc3N)nc3ccccc32)c(Br)c1	.	1.0	.	-17	.	3.8%
O=C1c2ccccc2C(=O)c2c1cccc2N1CCN(CCO)CC1	?	-0.4	-40	1	-14	-3.2%[38.3 µM]
COc1ccc(NC(=O)O/N=C/c2ccc(N(C)C)cc2)cc1	-8	1.7	0	-4	4.7	3.3%
CC(C)=C1C2CCC1C1C(=O)N(c3nc(-c4ccccc4)c(C)s3)C(=O)C21 (stereo unspecified)	-3	0.1	-12	-4	-1.4	0.2%
Cc1cccc(NC(=O)Cc2noc3ccccc23)c1C	18	1.1	21	9	-6.4	2.9%
O=C(NCc1ccccc1)C1CCCN1C(=O)Nc1ccccc1[N+](=O)[O-] (stereo unspecified)	0	-0.1	-3	-1	-3.8	2.3%
C=Cc1ccc(Cn2c(C)c(C(=O)NCc3ccc4c(c3)OCCO4)sc2=O)cc1	-9	-0.2	-6	.	5.5	-1.2%
Cc1nc2cccc(C(=O)NC3CCCCC3)c2o1	-1	-0.8	-11	10	-4.3	-0.3%
Cc1ccn2c(c1)nc(=O)c1cc(S(=O)(=O)N3CCC(C)CC3)c(Cl)cc12	.	1.9	.	-18	.	-0.6%
CCOC1=C2[C@H](c3ccccc3Cl)N(S(=O)(=O)c3ccc(C)cc3)C[C@H]2C(C#N)(C#N)C(C#N)(C#N)C1	2	-0.2	-11	4	-10.0	-0.2%
O=C(CCS(=O)(=O)Cc1ccccc1)NCC1CCCO1 (stereo unspecified)	5	0.1	-1	11	-1.9	24%[38.3 µM]
O=C(c1cn(-c2ccccc2)nc1-c1cc2ccccc2oc1=O)N1CCOCC1	10	-0.3	-6	18	-1.5	-0.3%
O=c1c2c(nc3cc(-c4ccccc4Cl)[nH]n13)CCS2	3	-0.6	-1	14	-0.6	5.1%
CSc1cc(C)[nH]c(=O)n1	8	1.3	-1	-3	-3.4	0.4%
O=C(CONS(=O)(=O)c1ccc(Cl)cc1)NCCNc1ncc(C(F)(F)F)cc1Cl	6	-0.6	5	24	6.1	?
COC(=O)C1CCN(C(=O)COC(=O)CNC(=O)c2ccc(Cl)cc2Cl)CC1	10	-0.1	-5	-7	-4.2	0.4%
CCOC(=O)C1=C(COC(=O)CNC(=O)c2cc(OC)c(OC)c(OC)c2)NC(=O)NC1C (stereo unspecified)	8	-0.9	-4	2	-1.2	2.0%
C#Cc1ccc([C@H]2C=C(C(=O)O)O[C@@H](OCc3ccc(CO)cc3)C2)cc1	-2	-0.4	-30	33	-1.0	0.6%
Cc1ccc(-c2noc(CCC(=O)Nc3cccc(C#N)c3)n2)cc1	-3	-0.4	0	-8	-3.4	21%
C[C@@H]1CN([C@H](C)CO)C(=O)c2cc(/C=C/c3ccccc3)cnc2O[C@H]1CN(C)C(=O)NC1CCCCC1	-4	-0.8	-4	-2	1.8	0.3%
COc1ccc(C2=NC3(CCCCCC3)N(CC(=O)Nc3cccc(Cl)c3)C2=O)cc1	.	3.2	.	?	.	4.3%
CC(=O)Nc1ccc2oc(-c3ccccc3)nc2c1	4	0.8	-8	20	0.5	-1.2%
CC1=NN(C(N)=S)C(=O)C1N=Nc1ccc([N+](=O)[O-])cc1 (stereo unspecified)	-5	-0.6	-4	12	0.4	-0.7%
CCOc1cc(CNC2CCCC2)ccc1OCc1ccccc1Cl	5	-0.4	-29	43	-2.9	-1.1%
CN(C)S(=O)(=O)c1ccc(N2CCCC2)c(C(=O)NCC2CCCO2)c1 (stereo unspecified)	1	-0.6	-15	-12	-6.0	1.7%
CC(CNC(=O)CCc1nnc2ccc(N3CCC4(CC3)OCCO4)nn12)c1ccccc1 (stereo unspecified)	3	-0.7	-29	-14	-1.9	1.0%
Nc1c(O)ccc2c1C(=O)c1ccccc1C2=O	-74*	1.4	-28	17	-8.3	0.2%
Cc1ccc(C=C2C=C(c3ccccc3)OC2=O)cc1	-2	1.0	-17	-3	-5.8	4.1%
Cc1cc(OCC(=O)Nn2cnnc2)c(C)cc1Br	7	0.9	-2	-7	-1.4	-1.1%
(list continues)
SMILES	Six1-Eya2 inh	TRPML1 agonist	D2 PAM	TRPML1 blocker	D2 agonist	PINK1 expr mod
O=C(Nc1ccc(Cl)c(S(=O)(=O)N2CCCCC2)c1)c1ccco1	-10	2.1	-3	36	-2.1	0.6%
COc1ccc2[nH]c3c(c2c1)CCN1C(=O)C(CC(=O)NCCC2=CCCCC2)C[C@H](C(=O)N2CCOCC2)[C@@]31C (stereo partly specified)	0	-1.1	-6	24	-2.4	1.4%
O=[N+]([O-])c1ccc(Sc2ccc(Cl)c(Cl)c2)nc1	-20	-0.1	-2	-13	-4.3	1.6%[38.3 µM]
O=C(NN1CC(=O)N(c2cc(Cl)cc(Cl)c2)CC1=O)c1sccc1Cl	4	0.6	-1	2	-5.7	-1.1%
O=C(CC[C@H]1O[C@@H](n2ccc(=O)[nH]c2=O)[C@H](O)[C@@H]1O)N[C@H](Cc1ccccc1)C(=O)NC1CCCCC1	1	-0.6	-1	.	2.1	0.4%
COc1ccccc1NC(=O)c1oc2ccccc2c1NC(=O)C1CC1	7	2.9	0	34	7.3	6.9%
O=C1/C(=C/c2ccc([N+](=O)[O-])cc2)Oc2cc(O)ccc21	-3	1.0	-3	8	-3.4	?
CCN(CC)CCCN(Cc1cc2cc3c(cc2[nH]c1=O)OCO3)C(=S)Nc1ccccc1OC	-1	2.5	-2	5	-4.4	1.7%
CCN(CCNC(=O)C1CCN(S(=O)(=O)c2c(C)noc2C)CC1)c1ccccc1	-8	0.3	-10	2	-0.4	0.5%
CCOC(=O)N1CCc2c(sc3c2c(=O)n(Cc2ccccc2)c(=O)n3CC(=O)NCCOC)C1	4	-0.5	-1	-2	-0.9	0.5%

Some of these compounds in order of their number in D2 PAM, largest number first:
canonical_smiles	Six1-Eya2 inh	D2 PAM	TRPML1 blocker	D2 agonist	PINK1 expr mod
COc1ccccc1NC(=O)c1oc2ccccc2c1NC(=O)C1CC1	7	0	34	7.3	6.9%
O=C(NN1CC(=O)N(c2cc(Cl)cc(Cl)c2)CC1=O)c1sccc1Cl	4	-1	2	-5.7	-1.1%
COc1ccc2[nH]c3c(c2c1)CCN1C(=O)C(CC(=O)NCCC2=CCCCC2)C[C@H](C(=O)N2CCOCC2)[C@@]31C (stereo partly specified)	0	-6	24	-2.4	1.4%
CCN(CCNC(=O)C1CCN(S(=O)(=O)c2c(C)noc2C)CC1)c1ccccc1	-8	-10	2	-0.4	0.5%

Next compounds.
SMILES	Six1-Eya2 inh	TRPML1 agonist	D2 PAM	TRPML1 blocker	D2 agonist	PINK1 expr mod
COc1ccc(-c2nn(-c3ccccc3)cc2CO)cc1	-7	-0.2	-1	10	-0.8	5.6%
Cc1cc(SCCC(=O)O)nc2c(C)cccc12	13	-0.4	13	-9	-3.3	-1.5%
O=C(COc1ccccc1)Nc1ccccc1Oc1ccccc1	19	1.7	2	-20	-0.3	4.7%
Cc1ccc(C)c(NC(=S)c2nc3ccccc3s2)c1	?	4.3	-2	32	-2.8	-1.1%
CCN(CC)S(=O)(=O)c1cccc(NC(=O)CN(C)C2CCCCC2)c1	6	1.1	-10	-6	6.9	-0.2%
COc1ccc(OC)c2sc(NNC(=O)C3COc4ccccc4O3)nc12 (stereo unspecified)	-8	1.7	-4	10	-7.0	3.2%
COc1cn(CC(=O)Nc2cccc(C)c2C)c(CN2CCCCC2)cc1=O	.	1.5	.	-12	.	1.3%
O=C(NCCC1CCCCN1S(=O)(=O)c1ccc(F)cc1)C(=O)NCc1ccccn1 (stereo unspecified)	-10	1.8	-15	-2	-2.8	1.6%
Cc1cc(C)c2c(-n3cccc3)c(C(=O)NCCCN3CCCCC3C)sc2n1 (stereo unspecified)	.	0.0	.	-13	.	0.6%
Cc1ccc(CN2CCCN(Cc3cc(C)ccc3C)S2(=O)=O)cc1	8	3.0	1	58	4.3	0.0%
CCCCN(C)CCNC(=O)Cn1c(=O)sc2ccccc21	-1	1.6	-7	-14	-1.6	-3.4%
N#Cc1cc(Oc2ccc3ccccc3c2)c(-n2nnc3ccccc32)cc1C#N	0	3.6	-9	10	-2.2	1.2%[38.3 µM]
Cn1c(SCC(=O)Nc2ccccc2Br)nnc1-c1cnccn1	4	-0.6	-3	-6	0.2	0.7%

This is a random part of the collection; any-hit rate near 1%.
